# Beta2AR agonist: agonists of human beta-2 adrenergic receptor inducing internalization | Am2.2-beta2AR cells, FAP receptor internalization, flow cytometry; reference of the scale not given here | response, % (test concentration not listed) | 340,000 compounds, 0.43% hits;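 active = response above a set limit, near 3 SD of response in nonfluorescent compounds, cut at about 42% in these data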;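 also: stock transfer was 100 nL into about 11 µL; a reference agonist was the positive control; negative values mostly stem from fluorescent compounds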
# Target sequence (P07550 whole entry, looked up): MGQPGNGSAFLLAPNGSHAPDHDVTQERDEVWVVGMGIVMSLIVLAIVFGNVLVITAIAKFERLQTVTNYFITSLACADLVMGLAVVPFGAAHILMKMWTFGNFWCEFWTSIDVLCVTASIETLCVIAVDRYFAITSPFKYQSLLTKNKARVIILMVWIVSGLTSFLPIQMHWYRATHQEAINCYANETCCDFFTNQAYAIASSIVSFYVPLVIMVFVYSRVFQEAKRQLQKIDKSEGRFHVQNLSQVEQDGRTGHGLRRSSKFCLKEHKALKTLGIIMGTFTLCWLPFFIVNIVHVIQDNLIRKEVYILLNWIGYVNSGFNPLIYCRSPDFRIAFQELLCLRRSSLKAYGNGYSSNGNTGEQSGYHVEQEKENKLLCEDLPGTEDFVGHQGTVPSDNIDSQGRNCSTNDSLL
# Vif TR-FRET: HIV-1 Vif–A3G interaction blockers – biochemical, TR-FRET, GST-Vif 1-94, biotin-A3G peptide, dose response retest, primary screen (AID 1117319); TR-FRET GST-Vif / biotin-A3G peptide binding; higher % means a stronger effect; test concentration not given here; strong numbers were not always called active; 260,000 compounds, 0.57% hits; inhibition, %, or IC50 in µM where a hit was titrated;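 active = above the screen mean plus three standard deviations and confirmed in dose response; inconclusive = results disagree or hit not tested in dose response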;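 also: Vif residues 1-94 fused to GST binding biotinylated APOBEC3G peptide 110-148; 0% = full assay without inhibitor and 100% = GST in place of GST-Vif; retest series ran down from 100 µM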
# E coli growth: E. coli growth inhibition. Escherichia coli growth, OD600, 23 h; active compounds read low. OD600 absorbance (concentration not given with the values). 330,000 compounds, 0.21% hits. AID 1053175;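 active = OD600 absorbance below the run mean of sample wells minus 3.6 SD, in any replicate, cut at about 0.56 in these data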;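 also: stock transfer was 300 nL into about 60 µL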
# UCH37 inh: inhibitors of human deubiquitinating enzyme UCH37; purified proteasome/UCH37, Ub-AMC cleavage fluorescence; inhibition, % (no concentration beside the values); 330,000 compounds, 0.33% hits; AID 588478;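 active = mean of two replicates above 20%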;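 also: 0% = compound-free wells with enzyme and 100% = wells lacking proteasome; stock transfer was 100 nL into about 20 µL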
# Target sequence (Q9Y5K5 whole entry, looked up): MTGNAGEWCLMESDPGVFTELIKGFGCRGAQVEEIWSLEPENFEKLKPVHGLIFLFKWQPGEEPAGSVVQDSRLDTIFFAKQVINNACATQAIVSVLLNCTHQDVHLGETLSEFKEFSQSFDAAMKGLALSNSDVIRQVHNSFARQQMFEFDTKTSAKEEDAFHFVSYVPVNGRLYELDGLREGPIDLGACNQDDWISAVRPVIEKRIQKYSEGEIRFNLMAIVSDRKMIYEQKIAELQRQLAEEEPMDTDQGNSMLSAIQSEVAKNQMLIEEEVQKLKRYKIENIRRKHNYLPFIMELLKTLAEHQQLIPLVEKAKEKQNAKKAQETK
#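 Material: human UCH37 enzyme supplied as purified proteasome complex / Amount: 0.15 nM proteasome as dispensed / Buffer or medium: pH 7.4 Tris-HCl (50 mM) with ovalbumin, ATP-MgCl2, DTT / Times: preincubation 30 min, reaction 25 min, room temperature / Technique: AMC fluorescence from Ub-AMC cleavage, excitation 355 nm, emission 460 nm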
# LANA-H2A inh: blocks KSHV LANA binding to histone H2A/H2B; AID 2629; 320,000 compounds, 0.6% hits; inhibition, % (no concentration beside the values); cell-free LANA-H2A/H2B peptide, fluorescence polarization; Q9QR71; in the data active = inhibition mostly above about 10%, no sharp cut-off; inactive = mostly below about 6.7%;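 also: stock transfer was 7.5 nL into about 10 µL; 0% = median of vehicle wells and 100% = median of positive control wells; one replicate is shown; the record names a cut of 25% in any replicate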
# HNF4A DNA FP: change in binding of human HNF4 alpha to DNA | activity change, % at 10 µM | 360,000 compounds, 0.3% hits | HNF4a-FITC DNA binding, fluorescence polarization, 1 h | P41235 | AID 1224865; in the data active = activity change above about 30%, passing the limit was not always enough;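 also: controls were the assay level and a saturating level of protein; the project sought stronger binding though the title names inhibitors; some compounds called inactive have numbers as strong as hits; positive values seem to mean higher polarization but the record does not say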
# Bfl-1 A1 inh: inhibitors of the anti-apoptotic protein A1, read as caspase activation; MEF A1-2A-BIM cells, Caspase-Glo 3/7 luminescence, 3 h; percent of clofoctol response, vehicle zero; caspase activation, % (test concentration not listed); 330,000 compounds, 0.066% hits; AID 2462;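 active = over half of replicate activation scores above 10%, or exactly half above 10 with the replicate mean above 10; inconclusive = replicate mean below 10 yet half the replicates above 10; inactive = over half of replicates below 10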;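 also: wells of about 30 µL received 50 nL stock; many hits fall short of the cut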
# * marks the source's active call; other numbers are inactive results; ? = inconclusive; . = no result given; & = joins results of further samples. Rows are unselected; any-hit rate near 2.1%.
SMILES,Beta2AR agonist,Vif TR-FRET,E coli growth,UCH37 inh,LANA-H2A inh,HNF4A DNA FP,Bfl-1 A1 inh
CCN(CC)S(=O)(=O)c1ccc(N2CCOCC2)c(NC(=O)c2cccc(C#N)c2)c1,3,5%,.,.,-3.6,3.0,0.4
CC(=O)Nc1c(O)nc(SCC(=O)Nc2ccc(C(C)=O)cc2)[nH]c1=O,-3,>100µM*,0.63,6.8,1.7,3.2,-0.6
Cc1cc(N2CCN(c3ccc([N+](=O)[O-])c4cccnc34)CC2)c2ccccc2n1,95*,5%,0.68,10.0,-2.5,138,0.4
COc1ccc(-c2cn(CCC(=O)O)c(C)n2)cc1,-5,.,0.68,2.4,5.8,1.5,-6.8
CC(=O)Nc1ccc(NC(=O)COc2ncnc3ccccc23)cc1,-9,12%,0.64,-0.2,-0.4,1.1,1.6
COc1cccc(NC(=O)CN(C)C(=O)c2cc(S(=O)(=O)NCc3ccccc3)ccc2C)c1,-2,.,0.73,2.3,0.0,2.4,0.6
Cn1c2c(c(=O)n(C)c1=O)[C@@H]1c3c(ccc4ccccc34)OC[C@@H]1CO2,0,11%,.,-1.1,-2.9,1.8,0.4
NC(=O)CSc1nc2cc3c(cc2c(=O)n1CCCC(=O)NCc1ccc2c(c1)OCO2)OCO3,1,5%,0.68,0.9,-1.1,1.1,0.1
COc1ccccc1NCC(=O)N/N=C/c1cccnc1,-5,11%,.,.,-1.8,-0.8,-0.5
CC(C)(C)NC(=O)c1cc(F)c(F)cc1Cl,-2,-9%,0.73,5.1,-1.3,6.0,0.4
COc1ccc(NC(=O)COC(=O)/C=C/c2ccc(OC)c(S(=O)(=O)N3CCOCC3)c2)cc1,-8,-12%,0.71,5.6,3.6,-0.9,-1.2
C/C(=N\Nc1cccc(C(F)(F)F)c1)c1ccc(O)cc1,2,4%,.,.,4.8,3.6,-0.2
CC1Oc2ccccc2N(CC(=O)N2CCCc3ccccc32)C1=O (stereo unspecified),-5,-3%,0.71,4.5,3.3,-3.3,0.2
Cc1ccc(C(=O)N/N=C/c2ccc(OC(=O)c3ccccc3Cl)cc2)cn1,1,.,.,.,1.7,0.3,0.3
CCN(CC)CCn1c2ccccc2c2cnc(N=CN(C)C)c(C#N)c21,-19,1%,0.74,-13,5.3,1.4,?
O=C(CNC(=O)c1cccs1)OCC(=O)c1ccc([N+](=O)[O-])cc1,5,.,0.69,0.7,-1.2,-1.1,0.2
C/C=C/C(=O)OCC(=O)Nc1cc(-c2cc(C)c(C)cc2C)nn1-c1ccccc1,-5,.,0.7,4.4,-4.1,5.2,-0.2
O=C(CCNS(=O)(=O)c1cccc2nonc12)NCc1cccs1,-1,2%,0.7,1.5,3.7,1.7,-0.2
Cc1ccc(S(=O)(=O)N2CCN(C(=O)COC(=O)CCCOc3ccccc3)CC2)c(C)c1,1,-11%,0.68,5.4,2.1,1.0,1.1
CN1CCN(NC(=O)c2cn(-c3ccccc3)nc2-c2cccc(Br)c2)CC1,-3,-5%,0.64,3.5,-5.4,46*,-0.4

# Overlap with the part before: three entries; new compounds follow.
SMILES,Beta2AR agonist,Vif TR-FRET,E coli growth,UCH37 inh,LANA-H2A inh,HNF4A DNA FP,Bfl-1 A1 inh
O=C(CCNS(=O)(=O)c1cccc2nonc12)NCc1cccs1,-1,2%,0.7,1.5,3.7,1.7,-0.2
Cc1ccc(S(=O)(=O)N2CCN(C(=O)COC(=O)CCCOc3ccccc3)CC2)c(C)c1,1,-11%,0.68,5.4,2.1,1.0,1.1
CN1CCN(NC(=O)c2cn(-c3ccccc3)nc2-c2cccc(Br)c2)CC1,-3,-5%,0.64,3.5,-5.4,46*,-0.4
Cc1oc(-c2ccc(Cl)cc2)cc1C(=O)/C(C#N)=C/Nc1ccccc1,-2,24%,0.68,-33,-0.4,1.9,1.4
COc1ccccc1N1CCN(C(=O)C2CCCN(c3ncnc4c3nc3n4CCCCC3)C2)CC1 (stereo unspecified),17,.,0.71,4.5,-4.3,4.1,0.3
C=CCn1c(N2CCCCCC2)nc2c1c(=O)[nH]c(=O)n2C,-10,30µM*,0.7,4.0,-6.5,2.0,0.6
CCCCC(c1nnnn1C1CCCC1)N1CCN(C2CCCCC2)CC1 (stereo unspecified),-1,10%,0.77,-0.7,-1.3,0.2,-0.3
Cc1cc(=O)c(C(=O)O)cn1Nc1ccc(F)cc1,-4,10%,0.66,1.1,-1.9,-6.6,0.4
NC(N)=N/N=C/c1ccc(Cl)c(Cl)c1,26,-9%,.,.,0.1,3.0,0.1
CN1C(=O)C(=O)/C(=C(/O)c2ccc(Br)cc2)C1c1ccc(F)cc1 (stereo unspecified),-1,.,0.69,9.5,4.2,2.4,-0.5
Cc1cccn2c(=O)c3cc(C#N)c(=NC(=O)c4cccs4)n(CC(C)C)c3nc12,-7,-11%,0.69,-173,-9.4,1.9,0.3
O=C(Nc1cccnc1)c1sc(Nc2ccccc2F)nc1-c1ccccc1,-11,93%,0.72,-12,5.8,-2.9,-0.9
COc1cccc(NC(=O)[C@@H](NC(=O)N2CCn3c2nc2ccccc23)C(C)C)c1,-9,-6%,0.65,2.3,-2.4,4.3,2.1
CC(C)c1ccc(N(CC(=O)NCCc2ccccc2)C(=O)c2csnn2)cc1,-6,.,0.62,8.7,8.1,-3.1,1.0
CC1=CC(C)(C)NC(=S)N1c1cc(C)cc(C)c1,13,-1%,0.69,-1.3,-3.9,0.6,0.1
Cc1sc2ncn(CC(=O)NCCCC(=O)N3CCN(c4ccccc4F)CC3)c(=O)c2c1C,-7,-5%,0.69,1.4,-3.8,1.8,0.0
COc1cccc(C(=O)NC(=S)Nc2ccc3[nH]c(=O)[nH]c3c2)c1,-3,.,0.67,2.0,-4.4,-3.3,-0.1
CN(C)CCCNc1cc(C(C)(C)C)nc2c(-c3ccc(Cl)cc3)cnn12,18,?,0.27*,-222,-8.3,3.5,1.1
O=C(/C=C/c1ccco1)N1CCc2ccccc21,-10,?,0.68,8.1,-0.4,-0.2,-1.1
CC(OC(=O)c1ccncc1)C(=O)Nc1cccc(Cl)c1 (stereo unspecified),-1,28%,0.66,0.6,7.5,-0.7,0.4
Cc1ccc(-n2nc3c(=O)n(C(C)C(=O)NCCCc4ccccc4)nc(C)c3c2C)cc1 (stereo unspecified),4,3%,0.69,-0.5,-0.3,0.0,1.5
COc1cccc(CC2(CO)CCCN(CC3=Cc4cc(Cl)ccc4OC3)C2)c1 (stereo unspecified),-3,-8%,0.64,2.2,-4.5,5.3,0.8
O=C1NC(=O)C2(CCCC2)N1,-5,-3%,0.72,0.0,.,-3.3,.
CC(C)C[C@@H](CN)NC(=O)c1nc[nH]c1C(=O)N[C@@H](C)C(=O)CNC[C@H](C)NC(=O)c1nc[nH]c1C(=O)N[C@@H](CC(C)C)C(=O)O,-8,7%,.,.,.,3.2,.
C[C@@H]1CCCCCCCCC(=O)OCCN1C(=O)OC(C)(C)C,-1,.,.,-1.2,1.0,3.2,0.0
CCOC(=O)c1ccccc1N/C=C/C(=O)c1ccccc1,-7,0%,0.68,-0.1,-0.3,-1.6,-7.7
CCOc1ccc2c(c1)c(N=NC(=N)N)c(O)n2C,3,.,.,.,1.9,-2.4,0.9
CCOc1ccc(N(C(=O)CNC(=O)c2ccco2)C(C(=O)NC2CCCC2)c2ccncc2)cc1 (stereo unspecified),-5,-14%,0.69,2.3,-0.3,0.8,-1.5
COc1ccc(/C=C/C(=O)NC(=S)NNC(=O)c2cccs2)cc1OC,-6,17%,0.66,3.1,-0.6,3.9,-0.6
CCn1c(SCc2nc3ccccc3c(=O)[nH]2)nnc1-c1cccnc1,-5,-1%&-2%,0.67,-0.7,-2.6,-2.8,0.0
Cc1ccccc1C1C2=C(Nc3[nH]n(-c4ccccc4)c(=O)c31)c1ccccc1C2=O (stereo unspecified),.,?,.,.,-1.6,.,0.5
COc1cccc(CNC(=O)Cn2ccc3cc(S(=O)(=O)N4CCCC4)ccc32)c1,-4,.,0.7,5.2,-0.4,3.7,-0.4
Cc1cc(C)n(-c2cccc(CN(C)Cc3nc(-c4cnccn4)no3)c2)n1,-5,.,0.67,4.8,-1.6,-5.5,-0.2

# Reformatted with tabs: entries from further up.
SMILES	Beta2AR agonist	Vif TR-FRET	E coli growth	UCH37 inh	LANA-H2A inh	HNF4A DNA FP	Bfl-1 A1 inh
O=C(CCNS(=O)(=O)c1cccc2nonc12)NCc1cccs1	-1	2%	0.7	1.5	3.7	1.7	-0.2
Cc1ccc(S(=O)(=O)N2CCN(C(=O)COC(=O)CCCOc3ccccc3)CC2)c(C)c1	1	-11%	0.68	5.4	2.1	1.0	1.1

# Continuation:
SMILES,Beta2AR agonist,Vif TR-FRET,E coli growth,UCH37 inh,LANA-H2A inh,HNF4A DNA FP,Bfl-1 A1 inh
CCCN1C(=O)/C(=C/c2cc(C)n(C)c2C)SC1=Nc1ccc(OC)cc1,-1,13%,.,1.7,-1.7,6.2,-0.7
Cc1ccccc1Nc1nc(N)nc(CCl)n1,5,14%,0.63,1.6,-3.0,-0.9,0.9
CNC(=O)CSc1nnc(-c2ccco2)n1-c1ccccc1OC,1,6%,0.74,1.1,3.2,1.5,-0.3
Oc1cccc(C(=S)N2CCN(Cc3ccccc3)CC2)c1,-3,-1%,0.69,-0.6,3.6,-1.4,0.2
CN(c1ccc(C(=O)NCc2ccccn2)cc1)S(=O)(=O)c1ccc(Cl)cc1,3,2%,0.68,1.6,-1.9,-6.2,0.3
Cc1cc(C)cc(NC(=S)N=Nc2c(O)n(C)c3ccc(S(=O)(=O)N4CCOCC4)cc23)c1,2,17%,0.72,5.9,1.8,-1.7,-0.9
COC(=O)c1ccc(OC(=O)c2ccccn2)cc1,4,8%,0.68,2.1,-1.1,-2.5,-0.9
CCN1CCN(C(CNS(=O)(=O)c2ccc(Cl)cc2)c2ccccc2)CC1 (stereo unspecified),3,-10%,0.66,1.7,-3.3,0.0,-0.2
Cc1ccc(S(=O)(=O)N2CCCN(S(=O)(=O)c3ccc(C)c(C)c3)CC2)cc1C,-6,?,.,.,-1.2,5.2,0.3
Cc1ccc(S(=O)(=O)N2CCC(C(=O)NNC(=O)c3ccccc3O)CC2)cc1C,1,-4%,0.7,-5.2,0.0,-4.4,3.1
Cc1[nH]n(C2=NCCS2)c(=O)c1N=Nc1ccccc1,1,6%,0.68,11,-2.8,2.9,-0.4
NC(=O)c1c(NC(=O)c2c(F)cccc2F)sc2c1CCN(Cc1ccccc1)C2,1,.,0.77,-33,-5.4,5.6,-0.3
Cc1csc(N(C)C(=O)CSc2nnc(COc3ccccc3C)o2)n1,-10,3%,0.71,-2.1,-0.6,1.8,-0.6
Cc1ccc2nc(C(O)C(O)c3nc4ccc(C)cc4[nH]3)[nH]c2c1 (stereo unspecified),11,4%,0.69,-2.4,-0.8,1.7,0.0
COc1cc(CN2CCN(Cc3ccc(C)cc3)CC2)c([N+](=O)[O-])cc1OC,-7,.,0.63,2.7,-7.8,3.5,1.3
COc1ccc(NS(=O)(=O)c2cccc(NC(=O)c3ccc(S(=O)(=O)N4CCCCCC4)cc3)c2)cc1,6,17%,0.68,2.5,2.7,2.9,-1.0
COc1ccc(-n2c(=S)[nH]c3cc(C(=O)NC4CCCCC4)ccc3c2=O)c(OC)c1,-4,.,0.7,4.9,0.1,6.2,-0.9
COc1ccccc1CN(C)CC(=O)Nc1cccc2ccccc12,10,-2%,0.68,1.5,0.3,3.4,-0.2
Cc1cc(C)c(C(=O)C[n+]2cccc(C(N)=O)c2)c(C)c1,9,2%,0.69,2.1,2.1,4.5,0.6
O=C(Nc1ccccc1Cl)C(=O)c1cn(CC(=O)N2CCOCC2)c2ccccc12,1,.,0.74,2.7,-3.8,-2.2,?

# Assay outcomes: PubChem, several laboratories
